CBX7 AlphaScr = CBX7 chromodomain binding inhibitors, primary screen, biochemical, AlphaScreen; Chromobox protein homolog 7 (Homo sapiens), O95931; AlphaScreen His6-CBX7 / biotin-H3K27me3 peptide binding; stronger effect = lower value; normalised signal (fraction of DMSO) (test concentration not listed); hit rate 1.1% among 66,000; in the data active = normalised signal below about 0.5;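 note: 100 nL library stock added to about 20 µL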
Target sequence (O95931 whole entry, looked up): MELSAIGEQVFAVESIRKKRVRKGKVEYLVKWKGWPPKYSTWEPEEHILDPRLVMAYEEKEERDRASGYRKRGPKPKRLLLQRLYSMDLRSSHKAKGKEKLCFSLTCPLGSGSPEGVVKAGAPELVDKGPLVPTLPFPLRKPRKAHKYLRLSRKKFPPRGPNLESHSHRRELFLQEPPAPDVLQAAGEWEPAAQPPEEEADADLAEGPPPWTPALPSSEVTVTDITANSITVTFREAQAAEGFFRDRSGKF
CBX7 AlphaScr z-score = recorded beside CBX7 AlphaScr, whose call it bears; z-score; measured here: z-score of CBX7 signal; some inactives read as strong as hits; reference of the scale not given here;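 same signal on another scale; lower means less binding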
* = called active by the depositor. Only part of the results is shown. The share of hits here may be higher or lower than overall.

For O=C(O)c1ccccc1C(=O)Nc1cccc(-c2cn3ccccc3n2)c1 the results were CBX7 AlphaScr 1 and CBX7 AlphaScr z-score -0.059.
CC(=O)NC(CCS(C)(=O)=O)C(=O)N1CCc2ccccc21 (centres undefined) was read as CBX7 AlphaScr 0.99 and CBX7 AlphaScr z-score -0.44.
For COc1cc(Nc2nc3nonc3nc2N2CCCCC2C)c(OC)cc1Cl (centres undefined) the results were CBX7 AlphaScr 0.97 and CBX7 AlphaScr z-score -0.82.
Screening Cc1cccc(OCCCCCc2c(C)n[nH]c2C)c1C returned CBX7 AlphaScr 0.91 and CBX7 AlphaScr z-score -1.3.
For CCN1CCN(C(=O)c2ccc3c(c2)N(Cc2ccccc2F)C(=O)c2ccccc2S3=O)CC1 (centres undefined) the results were CBX7 AlphaScr 1 and CBX7 AlphaScr z-score -0.028.
`Cc1ccc(C)c(Cn2c(C(C)NC(=O)C(C)(C)C)nc3ccccc32)c1` (centres undefined) gave CBX7 AlphaScr 1 and CBX7 AlphaScr z-score 0.025.
`C=CCc1cc(C)ccc1OCC(O)CN1CCOCC1` (centres undefined) gave CBX7 AlphaScr 0.82 and CBX7 AlphaScr z-score -1.2.
O=C(c1ccccc1)c1ccc2nc(Cc3ccccc3F)c(=O)[nH]c2c1 was read as CBX7 AlphaScr 0.9 and CBX7 AlphaScr z-score -3.2.
Screening CCOc1ccc(-c2nc(CS(=O)(=O)CC(=O)NCc3ccc(F)cc3)c(C)o2)cc1 returned CBX7 AlphaScr 0.99 and CBX7 AlphaScr z-score -0.4.
COc1ccc(C2=NOC(C(=O)N3CCN(c4ccccc4)CC3)C2)cc1 (centres undefined) was read as CBX7 AlphaScr 0.98 and CBX7 AlphaScr z-score -0.32.
`CCOC(=O)c1nc(Nc2cccc(C)c2C)c2ccccc2n1` gave CBX7 AlphaScr 0.95 and CBX7 AlphaScr z-score -0.066.
Screening CC(C)(O)C#Cc1ccc(C(=O)N2CCN(c3ccccc3F)CC2)cc1 returned CBX7 AlphaScr 1.1 and CBX7 AlphaScr z-score 1.2.
Screening COc1ccc(-n2nnnc2SCc2nc3ccccc3[nH]2)cc1 returned CBX7 AlphaScr 0.95 and CBX7 AlphaScr z-score -1.1.
Screening CCOc1cc(CNc2ncn[nH]2)ccc1OCC(=O)NC(C)(C)C returned CBX7 AlphaScr 0.83 and CBX7 AlphaScr z-score -1.9.
Screening O=C1CN(C(=O)c2c(F)cccc2F)C(c2ccc(F)cc2)c2cc(Br)ccc2N1 (centres undefined) returned CBX7 AlphaScr 0.88 and CBX7 AlphaScr z-score -2.4.
`CCn1cc(C(=O)N2CCN(c3ccc(C)cc3)C(C)C2)c2cc(OC)c(OC)cc2c1=O` (centres undefined) gave CBX7 AlphaScr 0.92 and CBX7 AlphaScr z-score -2.1.
`Cc1cc(C(F)(F)F)nc2sc3c(O)cc(=O)[nH]c3c12` gave CBX7 AlphaScr 0.9 and CBX7 AlphaScr z-score -1.6.
Screening Cc1ccccc1OCCNC(=O)c1ccc2ccccc2n1 returned CBX7 AlphaScr 1.1 and CBX7 AlphaScr z-score 1.4.
Screening CCc1ccc(CN2C(=O)CCC2(C)C(=O)NC2CCCCCC2)cc1 (centres undefined) returned CBX7 AlphaScr 1 and CBX7 AlphaScr z-score 0.38.
Cc1cccc(NC(=O)CSc2nc(-c3ccc4c(c3)OCO4)cn2-c2ccccc2)c1 was read as CBX7 AlphaScr 0.8 and CBX7 AlphaScr z-score -6.6.
CC1=Nc2ccc(Cl)cc2C12CCN1C(=O)OC(C)(C)C12C (centres undefined) was read as CBX7 AlphaScr 1.1 and CBX7 AlphaScr z-score 1.5.
For Cc1cccc(NC(=O)c2c(-c3ccccc3Cl)noc2C)c1NC(=O)c1ccccc1 the results were CBX7 AlphaScr 1 and CBX7 AlphaScr z-score 0.031.
For Cc1ccc2c(c1)N(CCC(=O)NC(C)c1ccccc1)C(=O)CO2 (centres undefined) the results were CBX7 AlphaScr 1 and CBX7 AlphaScr z-score 0.13.
Screening NS(=O)(=O)c1ccc(Nc2nc(-c3c[nH]c4ccccc34)cs2)cc1 returned CBX7 AlphaScr 0.89 and CBX7 AlphaScr z-score -4.1.
`CN1CCN(CCCNC(=O)CCN2C(=O)COc3ccccc32)CC1` gave CBX7 AlphaScr 1.1 and CBX7 AlphaScr z-score 1.8.
For CCCOc1cc(O)c(-c2n[nH]c(C)c2Oc2ccccc2)cc1CC the results were CBX7 AlphaScr 0.75 and CBX7 AlphaScr z-score -1.2.
Screening Cc1ccccc1-c1nc(CN2CCC(C(=O)NCc3ccc4c(c3)OCO4)CC2)c(C)o1 returned CBX7 AlphaScr 0.99 and CBX7 AlphaScr z-score -0.017.
CC(C)(C)OC(=O)N1CCC(c2cc(=O)n3[nH]cc(C(=O)NCc4ccc(Cl)cc4)c3n2)CC1 was read as CBX7 AlphaScr 1 and CBX7 AlphaScr z-score 0.11.
COc1ccc(-c2c(C)nn3c(N4CCN(c5cccc(C)c5)C(C)C4)cc(C)nc23)cc1OC (centres undefined) was read as CBX7 AlphaScr 0.8 and CBX7 AlphaScr z-score -5.7.
For COC(=O)CN1C(=O)C(C)=C(c2ccc(C)cc2)S1(=O)=O the results were CBX7 AlphaScr 1 and CBX7 AlphaScr z-score 0.99.
`O=C(O)CC1N=C(Nc2nc3ccccc3s2)NC1=O` (centres undefined) gave CBX7 AlphaScr 0.9 and CBX7 AlphaScr z-score -1.3.
`O=C(CSc1nc(-c2ccc(F)cc2)[nH]c1-c1ccc(Cl)cc1)NCC1CCCO1` (centres undefined) gave CBX7 AlphaScr 0.87 and CBX7 AlphaScr z-score -2.1.
`C=CC1CCC(N(C)C(=O)Nc2cccc(Cl)c2)C(O)C1` (centres undefined) gave CBX7 AlphaScr 1 and CBX7 AlphaScr z-score 0.098.
Screening COc1ccc(-c2cc3nc(-c4ccccc4)cc(C(F)(F)F)n3n2)cc1 returned CBX7 AlphaScr 0.99 and CBX7 AlphaScr z-score -0.19.
`Cc1ccc(NC(=O)CCc2nnc3ccc(N4CCC(C)CC4)nn23)cc1` gave CBX7 AlphaScr 0.95 and CBX7 AlphaScr z-score -1.3.
CCOC(=O)c1[nH]c2c(c1CCc1cccc(OC)c1)C(=O)CC(c1ccc(OC)cc1)C2 (centres undefined) was read as CBX7 AlphaScr 0.89 and CBX7 AlphaScr z-score -0.71.
`CCOC(=O)c1cnc2c(Cl)cccc2c1Nc1cccc(C)c1` gave CBX7 AlphaScr 1.1 and CBX7 AlphaScr z-score 0.91.
Screening COc1ccc(-c2noc(COc3ccc(Cl)cc3Cl)n2)cc1OC returned CBX7 AlphaScr 1.3 and CBX7 AlphaScr z-score 2.2.
`CC1CCN(S(=O)(=O)c2cn(CC(=O)N3CCCCC3C)c(=O)c3ccccc23)CC1` (centres undefined) gave CBX7 AlphaScr 1.1 and CBX7 AlphaScr z-score 0.7.
`CN(CCNC(=O)c1cn(C2CCCC2)c(=O)c2c1c1ccccc1n2C)Cc1ccccc1` gave CBX7 AlphaScr 0.93 and CBX7 AlphaScr z-score -1.9.
`O=C(Nc1ccc(S(=O)(=O)N2CCCCC2)cc1)c1cc2c(s1)-c1ccccc1OC2` gave CBX7 AlphaScr 1.3 and CBX7 AlphaScr z-score 4.
For O=C(Cc1ccccc1)Nc1ccc2oc(-c3ccccc3Cl)nc2c1 the results were CBX7 AlphaScr 0.91 and CBX7 AlphaScr z-score -1.2.
CCCCn1c(CCCNC(=O)Cc2ccccc2)nc2ccccc21 was read as CBX7 AlphaScr 1.1 and CBX7 AlphaScr z-score 1.
COc1ccccc1NC(=O)C1(c2ccccc2)CCCC1 was read as CBX7 AlphaScr 1.2 and CBX7 AlphaScr z-score 1.9.
Screening COc1cccc(-c2cc(C(=O)NC3CCCCC3)no2)c1 returned CBX7 AlphaScr 0.88 and CBX7 AlphaScr z-score -0.42.

For reference, some entries already given:
Screening COc1ccc(-c2cc3nc(-c4ccccc4)cc(C(F)(F)F)n3n2)cc1 returned CBX7 AlphaScr 0.99 and CBX7 AlphaScr z-score -0.19.
`Cc1ccc(NC(=O)CCc2nnc3ccc(N4CCC(C)CC4)nn23)cc1` gave CBX7 AlphaScr 0.95 and CBX7 AlphaScr z-score -1.3.
CCOC(=O)c1[nH]c2c(c1CCc1cccc(OC)c1)C(=O)CC(c1ccc(OC)cc1)C2 (centres undefined) was read as CBX7 AlphaScr 0.89 and CBX7 AlphaScr z-score -0.71.
`CCOC(=O)c1cnc2c(Cl)cccc2c1Nc1cccc(C)c1` gave CBX7 AlphaScr 1.1 and CBX7 AlphaScr z-score 0.91.
Screening COc1ccc(-c2noc(COc3ccc(Cl)cc3Cl)n2)cc1OC returned CBX7 AlphaScr 1.3 and CBX7 AlphaScr z-score 2.2.
`CC1CCN(S(=O)(=O)c2cn(CC(=O)N3CCCCC3C)c(=O)c3ccccc23)CC1` (centres undefined) gave CBX7 AlphaScr 1.1 and CBX7 AlphaScr z-score 0.7.
`CN(CCNC(=O)c1cn(C2CCCC2)c(=O)c2c1c1ccccc1n2C)Cc1ccccc1` gave CBX7 AlphaScr 0.93 and CBX7 AlphaScr z-score -1.9.
`O=C(Nc1ccc(S(=O)(=O)N2CCCCC2)cc1)c1cc2c(s1)-c1ccccc1OC2` gave CBX7 AlphaScr 1.3 and CBX7 AlphaScr z-score 4.
For O=C(Cc1ccccc1)Nc1ccc2oc(-c3ccccc3Cl)nc2c1 the results were CBX7 AlphaScr 0.91 and CBX7 AlphaScr z-score -1.2.
CCCCn1c(CCCNC(=O)Cc2ccccc2)nc2ccccc21 was read as CBX7 AlphaScr 1.1 and CBX7 AlphaScr z-score 1.

Going on with the list:
Cc1c(Cl)cccc1Nc1nc(-c2ccncc2)cs1 was read as CBX7 AlphaScr 0.9 and CBX7 AlphaScr z-score -1.3.
COc1cc2c(cc1OC)C(C(=O)Nc1ccc3c(c1)OCCO3)C(c1ccccc1F)N(C)C2=O (centres undefined) was read as CBX7 AlphaScr 0.86 and CBX7 AlphaScr z-score -2.5.
`COc1ccc(CCNc2oc(COc3ccccc3C)nc2C#N)cc1` gave CBX7 AlphaScr 0.85 and CBX7 AlphaScr z-score -6.5.
Screening O=C1CC(N2CCN(c3ccc(F)cc3)CC2)C(=O)N1CCc1ccccc1 (centres undefined) returned CBX7 AlphaScr 1 and CBX7 AlphaScr z-score 0.64.
CN1CCc2c(sc3c2C(=O)NC(c2ccc(OCc4ccccc4)cc2)N3)C1 (centres undefined) was read as CBX7 AlphaScr 0.98 and CBX7 AlphaScr z-score -0.37.
`Cc1ccc(-c2csc(NC(=O)c3cc(Cl)cc(Cl)c3)n2)c(C)c1` gave CBX7 AlphaScr 1.1 and CBX7 AlphaScr z-score 2.
`Cc1ccc2c(c1)NC(=O)C(CC(=O)NCCCN1CCN(c3ccccc3F)CC1)O2` (centres undefined) gave CBX7 AlphaScr 1 and CBX7 AlphaScr z-score 0.39.
For CN(c1ccccc1)S(=O)(=O)c1ccc(C(=O)Nc2nc3c(s2)C(=O)CC(C)(C)C3)cc1 the results were CBX7 AlphaScr 0.98 and CBX7 AlphaScr z-score -0.46.
For O=C(Nc1nc2ccccc2[nH]1)c1cc(-c2ccc3c(c2)OCO3)nc2ccccc12 the results were CBX7 AlphaScr 1 and CBX7 AlphaScr z-score 0.23.
For Cc1ccc(CNC(=O)c2cnn3c(C)c(Cc4ccccc4C)c(C)nc23)cc1 the results were CBX7 AlphaScr 1.1 and CBX7 AlphaScr z-score 2.3.
`COc1ccc(-c2nc(CN3CCC(C(=O)NCC(OC)OC)CC3)c(C)o2)cc1` gave CBX7 AlphaScr 1.1 and CBX7 AlphaScr z-score 1.5.
`CC(C)OCCCNC(=O)CN1C(=O)COc2ccc(S(=O)(=O)N3CCOCC3)cc21` gave CBX7 AlphaScr 1.1 and CBX7 AlphaScr z-score 2.7.
Screening Cc1cc(N2CCOCC2)nc2ccc(NC(=O)c3ccc(F)cc3)cc12 returned CBX7 AlphaScr 0.91 and CBX7 AlphaScr z-score -2.2.
For Cc1cc(Nc2ccc(Cl)c(C)c2)n2nc(C)nc2n1 the results were CBX7 AlphaScr 1.1 and CBX7 AlphaScr z-score 2.6.
`Cc1ccc(Nc2cc(C(=O)N3CCCCC3)c3ccccc3n2)cc1C` gave CBX7 AlphaScr 0.85 and CBX7 AlphaScr z-score -2.
Cc1nc2cc(NC(=O)c3ccc(S(=O)(=O)N(C)c4ccccc4)cc3)ccc2s1 was read as CBX7 AlphaScr 1 and CBX7 AlphaScr z-score 0.77.
Screening Cc1ccc(NC(=O)Cc2cc3ccccc3n2Cc2ccccc2)cc1 returned CBX7 AlphaScr 1.1 and CBX7 AlphaScr z-score 2.8.
`CCOC(=O)c1c(C)n(C)c2ccc(OCC(O)CNC(C)c3ccccc3)cc12` (centres undefined) gave CBX7 AlphaScr 0.93 and CBX7 AlphaScr z-score -3.1.
COc1cccc(NC(=O)C(=O)NCCc2c[nH]c3ccccc23)c1 was read as CBX7 AlphaScr 0.84 and CBX7 AlphaScr z-score -1.8.
`COC(=O)c1ccc2c(=O)n(-c3ccc(C)cc3)c(N3CCCC3)nc2c1` gave CBX7 AlphaScr 1.2 and CBX7 AlphaScr z-score 9.3.
For Cc1ccc(-c2nnc(NCc3ccccc3)c3ccccc23)cc1S(=O)(=O)N1CCOCC1 the results were CBX7 AlphaScr 0.87 and CBX7 AlphaScr z-score -3.6.
For CCCN(C(=O)Cc1c(C(=O)O)[nH]c2ccc(Cl)cc12)c1ccccc1F the results were CBX7 AlphaScr 1.1 and CBX7 AlphaScr z-score 2.
Screening Cc1ccc(-n2ncc(C(=O)O)c2C2CCN(C(=O)OC(C)(C)C)CC2)cc1C returned CBX7 AlphaScr 1 and CBX7 AlphaScr z-score -0.0027.
O=C(Nc1ccccc1-c1nc2ccccc2s1)c1ccc(S(=O)(=O)N2CCCC2)cc1 was read as CBX7 AlphaScr 1.1 and CBX7 AlphaScr z-score 3.1.

High-throughput results deposited in PubChem by several laboratories.
